YopH PTP inh: YopH tyrosine phosphatase inhibitors, primary screen, biochemical, fluorescence Ex485/Em525; YopH tyrosine phosphatase [Yersinia enterocolitica]; inhibition, %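 (about 10 µM by stock and volumes)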; 140,000 compounds, 0.16% hits;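 active = inhibition of 50% or more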;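 note: controls were vehicle for no effect and minimum signal wells for full effect; inactives centre near -20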
RecA intein inh: Mtb RecA intein splicing inhibitors, primary screen, biochemical, fluorescence, HTS; inhibition, %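 (about 9 µM by stock and volumes)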; cell-free RecA intein splicing; 290,000 compounds, 0.75% hits; AID 2221, 2009; in the data active = inhibition above about 30%; inconclusive = no clear call, values can overlap the other calls;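 note: 0% = vehicle wells and 100% = reference inhibitor control wells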
Target sequence (P9WHJ3 whole entry, looked up): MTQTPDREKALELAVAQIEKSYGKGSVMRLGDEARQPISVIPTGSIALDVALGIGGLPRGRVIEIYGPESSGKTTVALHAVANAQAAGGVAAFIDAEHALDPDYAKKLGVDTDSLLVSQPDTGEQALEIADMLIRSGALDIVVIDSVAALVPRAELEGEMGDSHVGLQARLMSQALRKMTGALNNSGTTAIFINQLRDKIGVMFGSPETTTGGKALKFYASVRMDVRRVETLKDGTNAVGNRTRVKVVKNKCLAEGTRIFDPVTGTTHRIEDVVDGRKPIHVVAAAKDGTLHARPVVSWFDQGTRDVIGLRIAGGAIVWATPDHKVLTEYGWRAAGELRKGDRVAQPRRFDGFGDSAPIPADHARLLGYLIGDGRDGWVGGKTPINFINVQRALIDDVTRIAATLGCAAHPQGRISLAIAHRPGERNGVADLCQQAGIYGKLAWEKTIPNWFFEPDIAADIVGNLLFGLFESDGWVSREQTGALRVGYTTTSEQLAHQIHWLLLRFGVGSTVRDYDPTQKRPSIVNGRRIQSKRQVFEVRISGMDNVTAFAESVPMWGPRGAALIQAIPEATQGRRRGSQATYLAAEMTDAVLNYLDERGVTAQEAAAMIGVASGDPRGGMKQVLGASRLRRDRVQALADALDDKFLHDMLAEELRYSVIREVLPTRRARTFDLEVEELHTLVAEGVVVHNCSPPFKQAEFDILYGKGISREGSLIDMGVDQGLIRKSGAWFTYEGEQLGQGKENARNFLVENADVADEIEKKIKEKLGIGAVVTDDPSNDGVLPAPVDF
Mtb bLac sens: beta-lactam sensitization of Mtb H37Rv, H37Rv; M. tuberculosis H37Rv growth with meropenem, percent inhibition; hits of this screen are not shown here; inhibition, % at 25 µM; 330,000 compounds, 0.27% hits;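 active = about 74% or more and at least 40 points above the plate without the antibiotic, then above 30% in a dose series; inconclusive = first-round hits that could not be retested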;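 note: growth measured after seven days incubation then overnight dye step; 0% = bacteria only wells and 100% = bacteria with antibiotic; twin plates without the antibiotic show which effects depend on it; some results filed as inactive read as strong as hits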
Mtb growth: M. tuberculosis H37Rv growth inhibitors, H37Rv strain (AID 1626); M. tuberculosis H37Rv growth inhibition; higher % means a stronger effect; inhibition, % at 10 µM, or IC50 in µM where a hit was titrated; 220,000 compounds, 0.95% hits;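 active = confirmed in a dose series; inconclusive = inhibition above 80% but not taken into the dose series; inactive = below 80% or under 30% at every dose of the series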;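 note: bacteria incubated seven days before Alamar blue readout; 0% = bacteria only wells and 100% = bacteria with antibiotic wells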
Arbovirus anti: antivirals against arbovirus infection, primary screen, cell-based, full library, 10K replicate subset; AID 1251, 2008; arbovirus infection cell-based antiviral screen; 200,000 compounds, 0.37% hits; inhibition, % at 10 µM;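 active = inhibition from about 30%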;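 note: bluetongue infection of BSR cells; cell survival read as ATP light after 72 h; 0% = infected wells without compound and 100% = uninfected wells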
Arbovirus anti repeat: also measured in Arbovirus anti; calls as there; inhibition, %; measured here: 10K subset replicate screen; many hits read low in the repeat;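 first of two repeat runs on a subset; 0% = infected and 100% = uninfected wells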
Numbers without * were called inactive; ? = inconclusive; · = not tested or not shown.

SMILES	YopH PTP inh	RecA intein inh	Mtb bLac sens	Mtb growth	Arbovirus anti	others
CCOc1cc(/C=N/Nc2nc(N3CCCCC3)nc(N3CCCCC3)n2)ccc1OC(=O)c1ccco1	·	-0.6	40	20%	9
Cc1ccc(/C=N/NC(=O)c2cccs2)o1	-9	0.8	3	2%	-7
CCOC(=O)C1(N(CC)CC)Sc2cc(C)ccc2NC1=O (configuration not stated)	-40	·	-4	·	-19
Cc1ccc(-n2c(C)cc(/C=N/NC(=O)c3ccncc3)c2C)cc1C	·	1.4	99	?	-6
S=C(Nc1ccc2nsnc2c1)NC1CCCCC1	7	8.0	-5	13%	18
COC(=O)c1c(-c2ccc(F)cc2)noc1N	-6	0.5	-6	6%	6
COC(=O)c1ccccc1NC(=O)[C@@H]1CCC(=O)N1C1OC(=O)c2c1ccc(OC)c2OC (some centres not stated)	·	2.2	0	·	·
CCN(CC)CCCNC(=O)C1CCC(CNS(=O)(=O)c2c(C)cc(C)cc2C)CC1 (configuration not stated)	·	-2.0	-5	·	·
CC1CCCN(C(=O)CCS(=O)(=O)c2cc3c(cc2Cl)NC(=O)CO3)C1 (configuration not stated)	·	2.0	-1	·	·
CCN(CC)C(=O)c1[nH]cnc1C(=O)Nc1ccc(OC)cc1	·	0.1	-7	1%	·
CC(=O)Nc1nc(C)c(C(C)C)s1	·	10	0	9%	·
COC(=O)C1CCN(c2c([N+](=O)[O-])cc(C(F)(F)F)cc2[N+](=O)[O-])CC1	-37	7.7	11	5%	-13
CCN1CCN(c2ccc(S(=O)(=O)N3CCCCC3)cc2NC(=O)c2cccc(OC(F)F)c2)CC1	·	1.6	-6	·	·
Cn1c(=O)[nH]c(=O)c2c1nc(Br)n2Cc1cccc(Br)c1	·	-0.6	5	·	·
Cc1ccc(NC(=O)CN2C(=O)S/C(=C\c3ccc(OCC(=O)O)c(Br)c3)C2=O)cc1	·	5.7	-2	·	·
N/C(CC(=O)NCCOc1ccccc1)=N\O	1	0.3	3	-1%	2
Cc1cc(=O)n2nc(N3CCCC(C(=O)Nc4ccc(C)c(C)c4)C3)sc2n1 (configuration not stated)	·	-1.1	0	·	·
CCOc1ccccc1C(=O)N/N=C/c1coc2ccc(Cl)cc2c1=O	·	-0.6	6	·	·
CCc1ccc2nc(N(CCCN(C)C)C(=O)c3ccc4c(c3)OCCO4)sc2c1	·	-4.9	24	·	·
Cc1nn(S(=O)(=O)c2ccc(C(C)(C)C)cc2)c(C)c1S(=O)(=O)N1CCOCC1	·	1.2	-3	·	·
O=C(NNc1ccc(O)cc1)c1ccc(Br)cc1	·	-1.0	37	-10%	-24
CCCCNC(=O)c1ccc(/C=C2\Oc3ccccc3N(C)C2=O)cc1	·	-8.7	31	58%	1
CC(OC(=O)CCCN=C1NS(=O)(=O)c2ccccc21)C(=O)c1ccccc1 (configuration not stated)	·	-8.0	-8	·	·
CCOc1ccccc1C(=O)NC1CC2CCCC(C1)N2Cc1ccc(C)cc1 (configuration not stated)	·	0.8	-21	·	·
O=C(Nc1nnc(-c2ccc(Cl)cc2)o1)Nc1ccccc1F	·	0.6	89	·	·
CN1C(=O)N(C)C2C1N(C)S(=O)(=O)N2C (configuration not stated)	-31	-0.3	0	-2%	-1
O=C(Nc1cccnc1N1CCOCC1)c1cc2ccccc2oc1=O	·	-0.3	84	·	·
CC(/C=N/n1c(-c2cccnc2)n[nH]c1=S)=C\c1ccco1	·	3.2	-14	-4%	·
CCOc1cc(C(=O)Nc2ccc3c(c2)OCO3)ccc1OCCOc1ccccc1Cl	-16	-0.8	-1	7%	-8
CC(C)NC(=S)N=Nc1c(O)[nH]c2ccc(C(C)C)cc12	0	23	64	?	-19
C/C(=N\OC(=O)NC(C)C)c1sc(-c2ccccc2)nc1C	-37	-1.4	1	15%	-14
COc1cccc(/C=N/NC(=S)NCCc2ccccc2)c1	·	14	4	·	·
NC(=S)N/N=C/c1ccc(-c2cc(Cl)c(Cl)cc2Cl)o1	·	-1.9	57	61%	-28
COc1cccc(-c2cc(C(=O)NCc3ccc(Cl)cc3)no2)c1	-28	0.8	?	-5%	-1
COc1ccc(C(=O)COC(=O)c2nn(C)c(=O)c3ccccc23)c(OC)c1	·	0.8	3	1%	10
Cc1ccc(OCCNC(=O)c2ccc(C)cc2)cc1	·	2.3	0	·	·

Brought forward from above: six compounds, then new ones.
SMILES	YopH PTP inh	RecA intein inh	Mtb bLac sens	Mtb growth	Arbovirus anti	others
C/C(=N\OC(=O)NC(C)C)c1sc(-c2ccccc2)nc1C	-37	-1.4	1	15%	-14
COc1cccc(/C=N/NC(=S)NCCc2ccccc2)c1	·	14	4	·	·
NC(=S)N/N=C/c1ccc(-c2cc(Cl)c(Cl)cc2Cl)o1	·	-1.9	57	61%	-28
COc1cccc(-c2cc(C(=O)NCc3ccc(Cl)cc3)no2)c1	-28	0.8	?	-5%	-1
COc1ccc(C(=O)COC(=O)c2nn(C)c(=O)c3ccccc23)c(OC)c1	·	0.8	3	1%	10
Cc1ccc(OCCNC(=O)c2ccc(C)cc2)cc1	·	2.3	0	·	·
O=C(COc1ccccc1Cl)Nc1cccc(S(=O)(=O)NC2=NCCCCC2)c1	·	-0.1	2	·	·
O=C(NCc1ccc2c(c1)OCO2)c1cc(-c2ccccn2)nc2ccccc12	·	-2.2	4	-6%	4
Cc1ccccc1N=CC1=C(O)c2ccccc2C1=O	·	-1.4	8	6%	-9
CCc1ccc(-c2cc(C)no2)cc1S(=O)(=O)N1CC(=O)Nc2ccccc21	·	4.3	?	·	·
CCOC(=O)c1sc2nc3c(SCC(=O)O)cc(C(=O)c4cc(F)ccc4O)cn3c(=O)c2c1C	-22	0.9	1	-5%	12
NC1=NC(=O)/C(=C/c2cccs2)S1	7	·	10	6%	7
Cc1ccc(C(=O)Nc2ccc(S(=O)(=O)Nc3ncccn3)cc2)cc1[N+](=O)[O-]	·	-2.7	3	·	·
C/C(=N\NC(=O)c1cccnc1)c1nnn(-c2nonc2N)c1C	·	·	-1	-7%	21
O=C(NCc1ccccc1)NC1(C(=O)N2CCN3CCCC3C2)CCCCC1 (configuration not stated)	-23	-1.5	-4	2%	8
CCOc1ccc(Cl)cc1CNCCc1ccc(F)cc1	·	-0.6	-5	-3%	-18
CCc1ccc(C(=O)NCc2cnn(C)c2)s1	·	-1.0	3	6%	-2
Cc1ccc(S(=O)(=O)N2CCOCC2)cc1C(=O)N1CCOCC1	-11	2.6	-2	0%	3

Entries from the list above containing a nitro group on carbon:
SMILES	YopH PTP inh	RecA intein inh	Mtb bLac sens	Mtb growth	Arbovirus anti	others
COC(=O)C1CCN(c2c([N+](=O)[O-])cc(C(F)(F)F)cc2[N+](=O)[O-])CC1	-37	7.7	11	5%	-13
Cc1ccc(C(=O)Nc2ccc(S(=O)(=O)Nc3ncccn3)cc2)cc1[N+](=O)[O-]	·	-2.7	3	·	·

The list goes on.
SMILES	YopH PTP inh	RecA intein inh	Mtb bLac sens	Mtb growth	Arbovirus anti	others
CC(=O)C1=C(C)NC(=O)NC1c1cccc([N+](=O)[O-])c1O (configuration not stated)	·	4.2	6	-3%	-2
Cc1ccccc1C(=O)Nc1nnc(-c2cccnc2)o1	·	-0.4	80	21%	-5
CCOC(=O)C1CCCN(C2=NC(=O)/C(=C/c3ccc(OC)cc3OC)S2)C1 (configuration not stated)	·	-1.8	12	·	·
CN(C)c1ccc(/C=N/NC(=O)C(=O)/C=C2\NC3(CCCC3)Cc3ccccc32)cc1	-15	-24	7	8%	-34
CCN(CC)c1ccc(NC(=S)NC(=O)c2ccco2)cc1	·	-4.4	93	3%	-12
Clc1ccc(CN2CCCCCC2)cc1Cl	·	-0.4	2	·	·
Cc1ccc(CC(=O)N2CCN(c3ccccc3F)CC2)cc1	·	1.5	1	4%	24
COC(=O)C(Cc1ccccc1)NC(=O)CCc1c[nH]c2ccccc12 (configuration not stated)	·	1.4	76	·	·
O=C(c1cc2cc(F)ccc2[nH]1)N1CCC2(CC1)OCCO2	·	-1.8	0	·	·
O=[N+]([O-])c1ccc(COc2ccccc2/C=N/O)cc1	-28	-1.2	12	4%	4
NS(=O)(=O)c1ccc(N/C=C\C(=O)c2cccc3ccccc23)cc1	-5	-2.8	8	15%	16
C/C(Cn1nc([N+](=O)[O-])cc1C)=N\NC(=O)c1cccc(Br)c1	-41	-0.4	20	1%	-4
Cc1cccc(C(=O)N[C@H](C(=O)Nc2nc(C)cs2)C(C)C)c1	-26	-6.3	5	15%	1
Cn1cccc1Cc1nnc(SCC(=O)Nc2ccc(F)cc2F)n1-c1ccc(F)cc1	-24	3.9	?	2%	0
CCc1ccc(NC(=O)c2cnc3n(c2=O)CCS3)cc1	-41	1.1	0	0%	3	Arbovirus anti repeat=3
c1ccc(Nc2nc3ccccc3[nH]2)nc1	-33	16	85	12%	-11
CCn1c2ccccc2c2cc(CC(N)=O)ccc21	·	0.4	3	1%	·
CC(C)C(=O)Nc1ccc2c(c1)nc1n2CCSC1	-20	2.6	-6	-7%	11
CC1Cn2c(nc(=O)c3c2NCN(CCc2ccccc2)C3)S1 (configuration not stated)	·	·	-8	-5%	5
CCOC(=O)C(C)Oc1cccc2c(=O)n(CC(=O)Nc3cccc(OC)c3)ccc12 (configuration not stated)	-39	0.6	0	4%	7
COc1cccc(/C=N/NC(=O)c2c(-c3ccccc3)noc2C)c1OC	·	-5.1	-20	·	·
O=C(O)CCCNS(=O)(=O)c1ccc2c(c1)OCCCO2	-13	-0.4	2	-5%	-8
COc1ccccc1/C=C/C(=O)NCCC1=CCCCC1	·	4.5	11	9%	-1
CCCc1ccc(C(=O)NNc2ccccc2F)cc1	·	-2.7	90	39%	·
COc1cc2[nH]c(=O)n(CCC(=O)N3CCN(Cc4ccccc4)CC3)c(=O)c2cc1OC	·	0.1	0	1%	6
CCC(C(=O)NCCCN1CC(C)CC(C)C1)n1ncn2c(cc3occc32)c1=O (configuration not stated)	·	3.0	-3	·	·
Cc1ccc2c(c1)sc1nc(=O)n(-c3ccc(Cl)cc3)c(=O)n12	-5	-3.0	4	-24%	4
CCOC(=O)c1c(NC(=O)CSc2nnc(-c3c[nH]c4ccccc34)n2CCOC)sc2c1CCCCC2	-34	4.2	-1	23%	-1
O=C(Cc1ccccc1F)Nc1ccc(SC(F)F)cc1	8	3.3	-6	-3%	-1
COc1ccc(OC)c(C2=NOC(C(=O)NCc3cccnc3)C2)c1 (configuration not stated)	·	-2.1	-6	·	·
O=C(CCn1cnc2ccccc2c1=O)Nc1cccc(Cl)c1	-13	-5.4	-7	-12%	9
COc1cccc(N2C(=O)CC(Nc3ccc(N4CCOCC4)cc3)C2=O)c1 (configuration not stated)	-44	-3.8	9	-13%	-1
COc1ccc(C(C)=O)cc1CSc1nc2ccccc2c(=O)n1-c1ccccc1C	-9	-3.9	7	18%	-12
Cc1cc(Nc2ccc(Cl)cc2)nc(N)n1	0	-0.8	2	7%	-4
CCOC(=O)c1cnc(-n2nc(C)cc2C)nc1Oc1ccc(C#N)cc1	·	-3.0	4	-3%	·
CCOC(=O)N1CCC(n2c(SCC(=O)Nc3nccs3)nc3ccsc3c2=O)CC1	-36	2.6	2	-1%	4
O=C(NCc1ccc(F)cc1)C1CCN(S(=O)(=O)N2CCCCC2)CC1	16	-1.3	-11	-7%	1
CCC1CCCCN1Cc1nc(Cc2ccccc2Cl)no1 (configuration not stated)	·	4.8	-3	-3%	·
CN(C)CCN1C(=O)NC(C)(c2ccc([N+](=O)[O-])cc2)C1=O (configuration not stated)	·	-3.3	3	-6%	8
Cn1c(N)c(C(=O)COC(=O)c2ccc(Cl)nc2)c(=O)n(C)c1=O	·	-0.5	1	0%	1
CC(C)(C)C(=O)/C=c1\[nH]c(=O)/c(=C\c2ccc(F)cc2)s1	-13	0.8	98	?	-10
O=C(Nc1ccc2c(c1)CCC2)c1ccccc1Br	·	3.6	2	4%	-4
Cc1cccc(C(=O)Nc2cccc(OCC(=O)O)c2)c1	·	-1.7	-4	-5%	0
Cc1ccc(-c2cc(C(=O)N(C)Cc3cnn(C)c3C)c3cc(Br)ccc3n2)cc1	-22	6.2	67	27%	2
COc1ccc(CN(C(=O)c2ccco2)c2ccc(Br)cc2)cc1OC	-37	6.0	3	-3%	11
CCn1cc(C(=O)Nc2ccccc2C(=O)OC)cn1	·	5.7	11	·	·
C=CCNC(=S)Nc1ccc2nc(C)oc2c1	·	-2.4	4	-1%	-3
Cc1ccc(NC(=O)c2ccccn2)c(Br)c1	·	2.9	2	0%	1
O=C(COC(=O)C1CCC(=O)N1)Nc1ccc(Cl)cc1Cl (configuration not stated)	-10	2.9	4	2%	-3

Source: PubChem (several laboratories)

A portion of the library (hit frequency here may not be typical).
